# High-throughput results: PubChem BioAssay, National Center for Advancing Translational Sciences (NCATS)
# Cruzain inh noDet: qHTS Assay for Promiscuous and Specific Inhibitors of Cruzain (without detergent). AID 1476, 2009. 200,000 compounds, 2.3% hits. purified cruzain, Z-FR-AMC fluorescence, no detergent. Cruzipain (Trypanosoma cruzi), P25779. Potency, µM, for inactives: max response, negative = inhibition, actives largely listed as inhibitors;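 also: plate controls were enzyme without inhibitor for no effect and buffer without enzyme for full effect; nearly all actives have a fitted effect of over 40% in size; top concentration of the series not given in the record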
# Target sequence (P25779 123-467 limits assumed): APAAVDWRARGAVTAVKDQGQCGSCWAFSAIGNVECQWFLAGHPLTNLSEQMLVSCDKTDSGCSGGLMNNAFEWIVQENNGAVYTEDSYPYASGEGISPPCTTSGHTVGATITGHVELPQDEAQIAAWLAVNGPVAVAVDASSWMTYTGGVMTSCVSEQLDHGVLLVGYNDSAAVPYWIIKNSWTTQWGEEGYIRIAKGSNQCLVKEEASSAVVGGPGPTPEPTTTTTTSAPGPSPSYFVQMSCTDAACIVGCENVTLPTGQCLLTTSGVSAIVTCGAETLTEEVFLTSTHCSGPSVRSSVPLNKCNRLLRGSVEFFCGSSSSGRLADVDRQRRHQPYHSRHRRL
#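 Detergent-free condition (0.00005% Triton X-100) in acetate buffer pH 5.5 with DTT. 1.5 nM enzyme and compound were pre-mixed 15 min, then 2 uM Z-FR-AMC substrate added; reaction progress from fluorescence change between first and third reads (60 s).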
# RE007 growth inh: qHTS Assay for Inhibitors of the HIV-1 protein Vpr. S. pombe RE007 Vpr strain, BacTiter-Glo ATP luminescence, 24 h; control for the full effect not named in the record. Potency, µM (doses to about 92.2 µM), for the others: at the top dose activity change, negative = less growth. 360,000 compounds, 0.21% hits. AID 651644, 2012; active = well fitted falling curve with a large enough effect; inconclusive = small, poorly fitted or top-dose-only effect; inactive = no such curve, though single readings can be large or run the other way;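 also: % is scaled to controls: 0 for no effect and ±100 for the full control effect; nearly all actives have a fitted effect of over 50% in size; the assay follows cell death caused by Vpr and the record does not say whether a fall means rescue or toxicity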
#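 Fission yeast strain RE007, carrying one chromosomally integrated HIV-1 vpr copy, was seeded at OD 0.01 in PMG+AL medium with 23 nL pinned compound. After 24 h at 30 °C and 99% humidity, viability was read by BacTiter-Glo luminescence.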
# MARV entry inh: qHTS for inhibitors of binding or entry into cells for Marburg Virus; Marburg virus pseudotyped entry inhibition, cell reporter; control for the full effect not named in the record; about a third of the inactives were read at about 46 µM; Potency, µM (highest dose often 37.8 µM), for the others: at the highest dose activity change, negative = inhibition, actives largely listed as inhibitors; 300,000 compounds, 1.8% hits; active = well fitted inhibition curve with a large enough effect; inconclusive = small, poorly fitted or top-dose-only effect, or effect the other way; inactive = flat fitted curve, though single readings scatter; tested in HEK293 cells; about a fifth of its hits are not listed in these tables; also: % is scaled to controls: 0 for no effect and ±100 for the full control effect; luciferase read-out
# Cruzain Triton: qHTS Assay for Promiscuous and Specific Inhibitors of Cruzain (with detergent); Cruzipain (Trypanosoma cruzi), P25779; purified cruzain, Z-FR-AMC fluorescence, 0.01% Triton; Potency, µM, for the others: max response, negative = inhibition, actives largely listed as inhibitors; 200,000 compounds, 0.43% hits; AID 1478, 2009;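 also: plate controls were neutral wells for no effect and buffer without enzyme for full effect; nearly all actives have a fitted effect of over 40% in size; top concentration of the series not given in the record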
#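 Cysteine protease activity tested under reducing, mildly acidic conditions (100 mM sodium acetate pH 5.5, 5 mM DTT) plus 0.01% Triton X-100. Cruzain 1.5 nM; substrate Z-FR-AMC 2 uM; 15 min compound preincubation at room temperature.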
# NS1 function inh: qHTS Assay for Inhibitors of Influenza NS1 Protein Function; S. cerevisiae slowed by influenza A NS1, growth recovery by OD600; Potency, µM (doses to about 46.1 µM), inactives show at the top dose activity, positive = more growth; 270,000 compounds, 0.4% hits; active means well fitted rising curve with a large enough effect; inconclusive means small, poorly fitted or top-dose-only effect; inactive means no such curve, though single readings can be large or run the other way; also: nearly all actives have a fitted effect of over 50% in size
#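 In this qHTS, NS1 from influenza A is expressed in budding yeast, where it slows growth. Cells are switched from glucose to 2% galactose medium (pH 6.0, -URA), treated with compound, and growth recovery is read at OD600.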
# SARS PLpro yeast: qHTS of Yeast-based Assay for SARS-CoV PLP | S. cerevisiae expressing SARS-CoV PLpro, growth rescue; control for the full effect not named in the record | Potency, µM (highest dose often 32.9 µM), for the others: at the top dose activity, positive = growth rescue | 330,000 compounds, 0.19% hits | AID 485353, 2010; active means well fitted rising curve with a large enough effect; inconclusive means small, poorly fitted or top-dose-only effect; inactive means no such curve, though single readings can be large or run the other way; also: 0% is about no effect; nearly all actives have a fitted effect of over 55% in size; growth read by luminescence after 48 h
# 2A StopGo: High Throughput Screening for Foot and Mouth Disease Virus Antivirals; Potency, µM (doses to about 57.9 µM), without a hit: at the highest dose signal change, negative = less light; AID 1159524, 2015; human cells with a luciferase reporter of 2A StopGo recoding; control for the full effect not named in the record; 410,000 compounds, 1.2% hits; active = well fitted falling curve with a large enough effect; inconclusive = small, poorly fitted or top-dose-only effect; inactive = no such curve, though single readings can be large or run the other way; tested in HEK293T cells; also: % is scaled to controls: 0 for no effect and ±100 for the full control effect; nearly all actives have a fitted effect of over 45% in size; luciferase light after 4 h
# Active calls of the source: *; ? = inconclusive; nt = not tested or not shown; & = joins results of further samples; ! = a repeat was not active; [ ] = remark or other dose. Unless noted, calls follow the shape of the dose curve; as a rule, active = well fitted curve in the direction sought with a large enough effect; inconclusive = small, poorly fitted or top-dose-only effect, or another doubt; inactive = no such curve, though single readings can be large; an effect the other way counts as inactive or inconclusive. Potency is read from the fitted curve at half-maximal effect. An excerpt, so the mix of outcomes need not match the whole.
SMILES,Cruzain inh noDet,RE007 growth inh,MARV entry inh,Cruzain Triton,NS1 function inh,SARS PLpro yeast,2A StopGo
c1nc(NC2CC2)c2cc(-c3ccoc3)ccc2n1,-9%,nt,nt,3.2%,nt,nt,-19%
COc1cccc(Nc2ncc3nc(CCc4ccccc4)c(=O)n(C)c3n2)c1,-3%,nt,nt,-0.8%,nt,nt,-3%
COc1ccc(-n2c(=O)c(C)nc3cnc(N(C)C)nc32)cc1,-10%,nt,nt,-2.3%,nt,nt,-14%
CC1=C(C(N)=O)N2C(=O)[C@@H](NC(=O)Cc3ccccc3)C2SC1 (stereo partly drawn),-5%,nt,nt,2.6%,nt,nt,0%
CCCc1nc(C(C)(C)O)c(C(=O)OCc2oc(=O)oc2C)n1Cc1ccc(-c2ccccc2-c2nn[nH]n2)cc1,?,nt,nt,-0.7%,nt,nt,-6%
CC(=O)O[C@H]1C[C@@H]2OC3C=C(C)CCC3(C)[C@@]1(C)[C@@]21CO1 (stereo partly drawn),nt,3.2µM*,0.45µM*,nt,nt,nt,nt
Cc1ccc2oc3c(SCc4nc5ccccc5[nH]4)nc(C)nc3c2c1,nt,nt,nt,nt,nt,-18%,-6%
COc1ccc(OC)c(-c2nnc3n2N=C(c2ccc(OC)c(OC4CCCC4)c2)CS3)c1,nt,nt,nt,nt,nt,-4%,?
CCC(=O)NC(c1ccco1)c1cc(Br)c2cccnc2c1O (stereo not drawn),nt,nt,nt,nt,nt,2%,-25%
NC(=O)C1CCN(c2nc(-c3ccc4ccccc4c3)cs2)CC1,nt,nt,nt,nt,nt,2%&2%,35%[activator]
CCNc1nc(C#N)nc2c1ncn2-c1cc(F)cc(F)c1,nt,nt,nt,nt,nt,5%,-16%
Cn1nnnc1Sc1ncnc2scc(-c3cccc(Br)c3)c12,nt,nt,nt,nt,nt,3%,-96%
Oc1c(CNc2ccccc2)cc(COCc2ccccc2)c2cccnc12,nt,nt,nt,nt,nt,4.5µM*!,?
CC(=O)NC(c1cccs1)c1cc(F)c2cccnc2c1O (stereo not drawn),nt,nt,nt,nt,nt,-1%&-12%,-22%
COc1cccc2c1oc1c(SCc3nc4ccccc4[nH]3)nc(C)nc12,nt,nt,nt,nt,nt,3%,-16%
COc1ccc(C2=Nn3c(nnc3-c3ccccc3C(F)(F)F)SC2)cc1OC1CCOC1 (stereo not drawn),nt,nt,nt,nt,nt,21%,-11%
O=S(=O)(c1cccc(C(F)(F)F)c1)N1CCN(S(=O)(=O)c2ccc3c(c2)OCCO3)CC1,nt,nt,nt,nt,nt,-3%,-29%
Oc1cc(Nc2cccnc2)cc2cccnc12,nt,nt,nt,nt,nt,-4%&-2%,-14%
CCOC(=O)CCC(=O)Nc1ncnc2c1C(c1ccccc1)c1c(ccc3ccccc13)O2 (stereo not drawn),nt,nt,nt,nt,nt,11%,?
O=S(=O)(NCC1CCC(NS(=O)(=O)c2c(F)cccc2F)CC1)c1ccc2c(c1)OCCO2 (stereo not drawn),nt,nt,nt,nt,nt,-11%&6%,25%
O=C1c2ccccc2NC(c2ccc(Br)o2)N1O (stereo not drawn),nt,nt,nt,nt,nt,0%,54%[activator]
CN(C)c1cccc(-c2csc(N3CCC(C(N)=O)CC3)n2)c1,nt,nt,nt,nt,nt,-7%,52%[activator]
C[C@H]1CN(S(=O)(=O)c2ccc3c(c2)OCCO3)CCN1S(=O)(=O)c1c(F)cccc1F,nt,nt,nt,nt,nt,13%,-23%
CC(=O)c1ccccc1-c1csc2ncnc(Sc3nnnn3C)c12,nt,nt,nt,nt,nt,1%,-17%
O=C(CNC(=O)C1CCCCC1)OC(C(=O)c1ccccc1)c1ccccc1 (stereo not drawn),nt,nt,nt,nt,nt,-1%,4%
NC(=O)C1CCN(c2nc(-c3ccccc3C(F)(F)F)cs2)CC1,nt,nt,nt,nt,nt,5%&-2%,59%[activator]
CCOc1ccccc1CNc1ncnc2ccc(-c3c(C)noc3C)cc12,nt,nt,nt,nt,nt,-8%&-12%,32µM*
Oc1cc(-c2cccnc2)cc2cccnc12,nt,nt,nt,nt,nt,5%&-1%,-18%
Cc1noc(C)c1-c1ccc2ncnc(NC(C)c3ccco3)c2c1 (stereo not drawn),nt,nt,nt,nt,nt,0%,-28%
Cn1nnnc1Sc1ncnc2scc(-c3ccc[nH]3)c12,nt,nt,nt,nt,nt,-4%,?
CCC(=O)NC(C)c1cc(Cl)c2cccnc2c1O (stereo not drawn),nt,nt,nt,nt,nt,-3%&4%,0%
Cn1c2cc(C#N)sc2c2cnn(Cc3ccc(F)cc3)c(=O)c21,nt,nt,nt,nt,nt,5.6µM*!,-15%
Cc1csc(CNc2ncnc3ccc(-c4ccc5c(c4)OCCO5)cc23)c1,nt,nt,nt,nt,nt,-6%&-2%,-21%
CCC(=O)NC(c1cccs1)c1cc(Cl)c2ccccc2c1O (stereo not drawn),nt,nt,nt,nt,nt,1%,-13%
Cc1csc(CNc2ncnc3ccc(-c4ccccc4Cl)cc23)c1,nt,nt,nt,nt,nt,4%&5%,-23%
O=S(=O)(c1ccc2c(c1)C(O)c1ccccc1CC2)C(F)(F)F (stereo not drawn),nt,nt,nt,nt,nt,0%,?
Clc1cccc(-c2ccc3ncnc(NCc4cccnc4)c3c2)c1,nt,nt,nt,nt,nt,-1%&12%,-19%
CC(=O)Nc1oc(-c2cccc3ccccc23)nc1C#N,nt,nt,nt,nt,nt,-5%,10%
O=[N+]([O-])c1ccccc1S(=O)(=O)N1CCN(S(=O)(=O)c2ccc3c(c2)OCCO3)CC1,nt,nt,nt,nt,nt,-22%,-22%
O=c1c2ccccc2nc2sc(Nc3cccc(Cl)c3)nn12,nt,nt,nt,nt,nt,0%,19%
Nc1ncnc2c1C(c1ccccc1)c1c(ccc3ccccc13)O2 (stereo not drawn),nt,nt,nt,nt,nt,-9%,?
Cn1c2ccsc2c2ncn(Cc3ccc(F)cc3)c(=O)c21,nt,nt,nt,nt,nt,4%&-1%,-9%
COc1cccc(Nc2ccc(N3CCCCC3)cc2)c1OC,nt,nt,nt,nt,nt,17%,26%
CCC(=O)NC(c1cc(Cl)c2cccnc2c1O)C1CC1 (stereo not drawn),nt,nt,nt,nt,nt,6%&-2%,?
Fc1ccccc1-c1nc(-c2ccc(-c3nn[nH]n3)cc2)no1,nt,nt,nt,nt,nt,4%,45%[activator]
C=CCNc1oc(-c2cccc(F)c2)nc1C#N,nt,nt,nt,nt,nt,?,-12%
Cn1nnnc1Sc1ncnc2scc(-c3ccc(Br)cc3)c12,nt,nt,nt,nt,nt,4%,18µM*
C=CCNc1oc(-c2cccc(Cl)c2)nc1C#N,nt,nt,nt,nt,nt,-1%,35%[activator]
O=C(OCC#CCSc1nnc(-c2cccc3ccccc23)o1)c1ccc2ccccc2c1,nt,nt,nt,nt,nt,-4%&0%,8%
Cn1nnnc1Sc1ncnc2scc(Br)c12,nt,nt,nt,nt,nt,-2%,22µM*
CC(=O)NC(c1ccco1)c1cc(Cl)c2cccnc2c1O (stereo not drawn),nt,nt,nt,nt,nt,0%,-11%
O=S(=O)(c1ccc2c(c1)OCCO2)N1CCN(S(=O)(=O)c2ccco2)CC1,nt,nt,nt,nt,nt,1%,-15%
COC(=O)c1cccc(-c2noc(-c3ccccc3F)n2)c1,nt,nt,nt,nt,nt,0%,27%
Cc1nc(SCc2nc3ccccc3[nH]2)c2oc3cc([N+](=O)[O-])ccc3c2n1,nt,nt,nt,nt,nt,0%,?
Cc1csc(CNc2ncnc3ccc(-c4cccnc4)cc23)c1,nt,nt,nt,nt,nt,2%&4%,-28%
NC(=O)C1CCN(c2nc(-c3ccccc3-c3ccccc3)cs2)CC1,nt,nt,nt,nt,nt,9%&-10%,-4%
O=S(=O)(c1ccc2c(c1)OCCO2)N1C[C@@H]2C[C@H]1CN2S(=O)(=O)c1c(F)cccc1F,nt,nt,nt,nt,nt,17%,-19%
O=S(=O)(c1ccc2ccccc2c1)N1CCN(S(=O)(=O)c2c(F)cccc2F)CC1,nt,nt,nt,nt,nt,-5%,62%[activator]
COc1ccc(C2=Nn3c(nnc3-c3ccccc3OC)SC2)cc1OC1CCCC1,nt,nt,nt,nt,nt,-1%,14µM*
CN(C)c1ccc(NC(=O)CCN2CCN(c3ccccn3)CC2)cc1,nt,nt,nt,nt,2%,7%,-3%

# More results.
SMILES,Cruzain inh noDet,RE007 growth inh,MARV entry inh,Cruzain Triton,NS1 function inh,SARS PLpro yeast,2A StopGo
Cc1ccc([N+](=O)[O-])cc1NC(=O)Nc1onc(C)c1C,nt,nt,nt,nt,3%,1%,-28%
COc1cc(/C=N/NC(=O)c2ccncc2)c([N+](=O)[O-])cc1OC,nt,nt,nt,nt,4%,3%,-7%
COc1ccc(C(=O)Oc2ccc[nH]c2=O)cc1,nt,nt,nt,nt,2%,2%,5%
CN(C)c1nc(=NCc2ccco2)ss1,nt,nt,nt,nt,3%,-2%,-19%
COc1cccc(/C=C/c2ccc3cccc(O)c3n2)c1OC,nt,nt,nt,nt,-77%,-5%,2%
CSc1nc(Cl)cc(=O)[nH]1,nt,nt,nt,nt,7%,1%,-2%
C=CCNC(=S)N1CCN(c2ccccc2Cl)CC1,nt,nt,nt,nt,-116%,-2%,38%[activator]
CN(C)c1ccc(/C=C/c2nc3ccccc3c(=O)[nH]2)cc1,nt,nt,nt,nt,-3%,-2%,10µM*
O=C(Nc1csnn1)c1csnn1,nt,nt,nt,nt,6%,0%,-4%
COc1ccccc1/C=C(/C#N)C(=O)O,nt,nt,nt,nt,3%,1%,-1%
Cn1c(=O)[nH]c(=O)c2c1nc(N1CCN(C(c3ccccc3)c3ccccc3)CC1)n2CCO,nt,nt,nt,nt,-2%,2%,-26%
CCCCCCCCCCOC(=O)Cn1c(COc2cccc(OC)c2)[n+](C)c2ccccc21,nt,nt,nt,nt,-38%,6%,28µM*
O=C1CCCC1C(=O)Nc1ccc2ccccc2c1 (stereo not drawn),nt,nt,nt,nt,-12%,-6%,34%[activator]
O=c1nccc(SCc2ccc(Cl)cc2Cl)[nH]1,nt,nt,nt,nt,1%,20%,3%
COc1ccc(OC)c(Nc2nc(N(C)c3ccccc3)nc(N)c2[N+](=O)[O-])c1,nt,nt,nt,nt,-2%,0%,-28%
CCN(CC)CCCNC(=O)c1cc2c(-c3cccc(OC)c3)nn(C)c2s1,nt,nt,nt,nt,-4%,1%,-1%
